T cruzi inh: T. cruzi replication inhibition. 300,000 tested, 1.4% active. T. cruzi beta-gal in NIH3T3, luminescence, 90 h. AID 1885. inhibition, % (no concentration beside the values);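 active = mean inhibition across valid replicates above about 55%, limit read from the data; inconclusive = mean below that limit but half or more replicates reach it; inactive = mean below it, under half of replicates reach it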;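 note: signal also drops with host cell toxicity which is not excluded here; 0% = plate median of DMSO wells and 100% = zero luminescence signal; higher percent means less beta-gal luminescence so fewer parasites; stock transfer was 50 nL into about 50 µL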
rRNA inh HTS: selective bacterial rRNA inhibition in E. coli; E. coli WT GFP vs humanized-ribosome RFP mutants, fluorescence, 24 h; hits give low values; DMSO median 0, no signal -100; AID 720706; GFP signal change (wild-type ribosome), % (concentration not given with the values); 350,000 tested, 1.6% active;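 active = significant combined selectivity score with lowered wild-type GFP, culture density cut under 30%, mutant RFP and density less affected; inactive = any of these conditions unmet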; note: one replicate is shown; some compounds called inactive have numbers as strong as hits
FGF22 binding: FGF22 (human) thermal shift binding; Q9HCT0; recombinant FGF22 thermal shift, SYPRO orange fluorescence; percent of sucrose octasulfate shift, DMSO zero; calls only at 9.99 µM; 340,000 tested, 1.5% active; AID 651658;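 active = melting point raised past a set limit in the mean and every replicate; inconclusive = no clear call; three in four hits are not shown here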
Target sequence (Q9HCT0 whole entry, looked up): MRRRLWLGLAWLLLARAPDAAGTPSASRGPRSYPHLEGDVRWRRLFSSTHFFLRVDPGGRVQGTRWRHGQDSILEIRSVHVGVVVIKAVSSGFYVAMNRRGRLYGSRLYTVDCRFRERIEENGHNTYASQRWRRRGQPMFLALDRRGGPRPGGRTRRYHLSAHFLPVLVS
ALR inh: blocks human ALR sulfhydryl oxidase activity. 290,000 tested, 3.8% active. AID 485317. purified ALR, DTT oxidation, H2O2 HRP-luminol luminescence. inhibition, % (concentration not given with the values);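 active = mean and each replicate at 75% or more; inconclusive = only one of the two met; inactive = neither met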;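 note: stock transfer was 7.5 nL into about 7.5 µL; 0% = neutral wells and 100% = wells with inactivated enzyme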
Target sequence (P55789 whole entry, looked up): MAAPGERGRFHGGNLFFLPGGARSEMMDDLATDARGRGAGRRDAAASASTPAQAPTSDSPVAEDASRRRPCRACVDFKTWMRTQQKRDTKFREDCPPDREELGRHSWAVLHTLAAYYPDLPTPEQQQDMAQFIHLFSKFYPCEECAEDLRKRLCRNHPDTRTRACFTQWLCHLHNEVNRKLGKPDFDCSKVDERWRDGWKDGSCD
MLL AF4-AF9 inh: inhibitors of human MLL-AF4/AF9 interaction | P42568 | AlphaScreen, biotin-AF4 peptide binding to FLAG-AF9 | inhibition, % at 10 µM | 350,000 tested, 0.47% active;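 active = every replicate reaching a set inhibition limit, whatever the replicate mean, cut at about 25% in these data; inconclusive = mean inhibition reaches that limit but some replicates miss it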;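 note: 0% = plate neutral control median and 100% = total signal loss; the record names both 10 and 1 µM as test concentration; the first replicate is given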
Target sequence (P42568 whole entry, looked up): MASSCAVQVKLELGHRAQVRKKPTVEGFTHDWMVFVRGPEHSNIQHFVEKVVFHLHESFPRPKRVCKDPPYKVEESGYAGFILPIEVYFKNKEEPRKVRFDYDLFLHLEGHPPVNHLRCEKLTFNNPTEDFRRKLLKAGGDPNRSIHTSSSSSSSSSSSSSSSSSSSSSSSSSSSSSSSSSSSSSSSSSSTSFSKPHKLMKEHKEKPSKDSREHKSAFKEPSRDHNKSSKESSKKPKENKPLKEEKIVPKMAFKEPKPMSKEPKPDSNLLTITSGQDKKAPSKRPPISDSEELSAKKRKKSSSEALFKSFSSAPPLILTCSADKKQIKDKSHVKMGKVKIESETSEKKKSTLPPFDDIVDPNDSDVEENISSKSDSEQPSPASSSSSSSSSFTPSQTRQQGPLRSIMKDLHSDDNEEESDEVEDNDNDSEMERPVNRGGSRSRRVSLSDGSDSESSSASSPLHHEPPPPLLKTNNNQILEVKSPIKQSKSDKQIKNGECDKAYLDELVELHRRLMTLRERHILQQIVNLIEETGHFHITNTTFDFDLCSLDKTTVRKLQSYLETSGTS
RanGTP-Impb inh: disruptors of Ran-importin-beta complex formation – biochemical, FRET, CFP-Ran, YFP-importin-beta, homogeneous, primary screen; cell-free CFP-Ran/YFP-importin-beta FRET ratio; inhibition, % (no concentration beside the values); 300,000 tested, 1.1% active; AID 2216;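 active = most replicates above 15%; inconclusive = exactly half above 15%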;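 note: 0% = DMSO wells and 100% = Ran loaded with GDP instead of GTP; wells of about 40 µL received 100 nL stock; the first replicate is given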
Beta apoptosis: blocks beta cell apoptosis; 300,000 tested, 0.8% active; AID 435005; protection from apoptosis, % (no concentration beside the values); INS-1E cytokine-induced death, ATP luminescence, 48 h; percent of positive-control rescue, neutral wells zero;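 active = all replicates at 75% or more, or half of them and the mean; inconclusive = half reach 75% but not the mean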;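 note: 0% = cytokine-treated negative control wells and 100% = positive control rescue; higher means more ATP so stronger rescue from cytokine killing; wells of about 40 µL received 100 nL stock; the first replicate is given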
Calb FLC: affects C. albicans growth with fluconazole. C. albicans CaCi-2 (fluconazole-resistant clinical isolate) + fluconazole, Alamar Blue growth, 48 h. 300,000 tested, 0.57% active. growth inhibition, % (concentration not given with the values). AID 1979;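 active = most replicates above 75%; inconclusive = exactly half above 75%; inactive = most below 75%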;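 note: all wells also contain fluconazole at 8 µg/ml as a sub-toxic cotreatment; 0% = median of DMSO wells and 100% = median of geldanamycin control wells; wells of about 8 µL received 7.5 nL stock; the first replicate is given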
rRNA inh HTS OD600: recorded beside rRNA inh HTS, whose call it bears; OD600 change, %; measured here: OD600 growth;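 optical density of the mix in the first replicate; 0 = DMSO median and -100 = no signal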
rRNA inh HTS RFP: also measured in rRNA inh HTS; calls as there; RFP signal change, %; measured here: RFP humanized mutant strains;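 first replicate; 0 = DMSO median and -100 = no signal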
* marks the source's active call; other numbers are inactive results; & = joins results of further samples. These rows are one share of the data; count on the stated rates, not on these rows.

Preview:
How did Cc1ccsc1C1Nc2ccc3ncccc3c2C2=C1C(=O)CC(C)(C)C2 (stereo not given) do in these assays?
T cruzi inh: -8; ALR inh: -6; RanGTP-Impb inh: 2.3; Beta apoptosis: 0; Calb FLC: 22

Results for Cc1nn(-c2ccc(Cl)cc2)c2sc(C(=O)N3CCN(c4ccccn4)CC3)cc12 ?
T cruzi inh: 34; ALR inh: -2; RanGTP-Impb inh: -1.1; Beta apoptosis: -3; Calb FLC: -3

All compounds of this part, from the first entry:
How did Cc1ccsc1C1Nc2ccc3ncccc3c2C2=C1C(=O)CC(C)(C)C2 (stereo not given) do in these assays?
T cruzi inh: -8; ALR inh: -6; RanGTP-Impb inh: 2.3; Beta apoptosis: 0; Calb FLC: 22

Results for Cc1nn(-c2ccc(Cl)cc2)c2sc(C(=O)N3CCN(c4ccccn4)CC3)cc12 ?
T cruzi inh: 34; ALR inh: -2; RanGTP-Impb inh: -1.1; Beta apoptosis: -3; Calb FLC: -3

How did C[C@H]1CN([C@@H](C)CO)C(=O)c2cccc(NC(=O)C3CC3)c2O[C@H]1CN(C)CC1CCCCC1 do in these assays?
rRNA inh HTS: 5&12; FGF22 binding: inactive; ALR inh: -1; MLL AF4-AF9 inh: -1.9; Beta apoptosis: 0; rRNA inh HTS OD600: 10&3; rRNA inh HTS RFP: -0.6&-2.0

What do the screens show for `CC(=O)Nc1ccc(S(=O)(=O)N2CCC(N(C)CCC(C)C)CC2)cc1`?
T cruzi inh: 14; ALR inh: -24; RanGTP-Impb inh: 4.1; Beta apoptosis: -2; Calb FLC: -9

How did CC(=O)C1=C(c2ccccc2)NC(=O)NC1c1ccccc1OCC(=O)Nc1ccccc1 (stereo not given) do in these assays?
T cruzi inh: 10; ALR inh: 0; RanGTP-Impb inh: -2.0; Beta apoptosis: 3; Calb FLC: 1

How did COC(=O)c1sccc1NC(=O)c1c(C)c(-c2cccc(Cl)c2)nc2ccccc12 do in these assays?
T cruzi inh: 5; ALR inh: -17; RanGTP-Impb inh: inconclusive; Beta apoptosis: 0; Calb FLC: 32

Results for O=c1cc(N2CCCCC2)c(-c2ccccc2)nn1Cc1ccc(Cl)cc1 ?
T cruzi inh: 48; ALR inh: 0; RanGTP-Impb inh: -0.9; Calb FLC: -29

How did CCOC(=O)C1CCN(C(=O)COc2ccc(S(=O)(=O)N3CCOCC3)cc2)CC1 do in these assays?
T cruzi inh: -6; rRNA inh HTS: 6; FGF22 binding: inactive; ALR inh: 1; MLL AF4-AF9 inh: -4.8; RanGTP-Impb inh: -4.9; Beta apoptosis: -7; Calb FLC: -8; rRNA inh HTS OD600: 11; rRNA inh HTS RFP: -0.3

How did CCOc1ccc2oc(=O)cc(CN3CCOCC3)c2c1 do in these assays?
T cruzi inh: -16; rRNA inh HTS: 8; FGF22 binding: inactive; ALR inh: -5; MLL AF4-AF9 inh: -0.8; RanGTP-Impb inh: -0.8; Beta apoptosis: -4; Calb FLC: 2; rRNA inh HTS OD600: 5; rRNA inh HTS RFP: -1.9

What do the screens show for `COc1ccc(-c2oc3ncn(Cc4ccco4)c(=N)c3c2-c2ccc(OC)cc2)cc1`?
T cruzi inh: 41; ALR inh: 2; RanGTP-Impb inh: -6.0; Beta apoptosis: 42; Calb FLC: 11

How did CCCCC(=O)c1ccc(O)cc1 do in these assays?
T cruzi inh: -19; rRNA inh HTS: -3; FGF22 binding: inactive; ALR inh: -3; MLL AF4-AF9 inh: 3.9; RanGTP-Impb inh: 4.0; Beta apoptosis: -12; Calb FLC: -21; rRNA inh HTS OD600: 5; rRNA inh HTS RFP: 3.7

Results for CC(C)NC(=O)CCCn1c(=S)[nH]c2cc3c(cc2c1=O)OCO3 ?
T cruzi inh: -16; ALR inh: -16; RanGTP-Impb inh: -2.0; Calb FLC: -9

What do the screens show for `COc1ccc(C(=O)Nc2ccc(N3CCC(C)CC3)cc2)cc1Br`?
T cruzi inh: 23; rRNA inh HTS: 4; FGF22 binding: inactive; ALR inh: -5; MLL AF4-AF9 inh: 0.6; RanGTP-Impb inh: 0.4; Calb FLC: 16; rRNA inh HTS OD600: 6; rRNA inh HTS RFP: 1.4

How did CCCCCCCC(=O)NNC(=O)c1c(O)c2ccccc2n(CC)c1=O do in these assays?
T cruzi inh: 1; rRNA inh HTS: 11; FGF22 binding: inactive; ALR inh: -3; MLL AF4-AF9 inh: -0.4; RanGTP-Impb inh: 0.8; Beta apoptosis: 8; Calb FLC: -1; rRNA inh HTS OD600: 13; rRNA inh HTS RFP: 1.4

How did COc1ccc(CCN2CC(C(=O)OCC(=O)NC(C)c3cccc(Cl)c3)CC2=O)cc1OC (stereo not given) do in these assays?
rRNA inh HTS: -7; FGF22 binding: inactive; MLL AF4-AF9 inh: -1.5; Beta apoptosis: -2; rRNA inh HTS OD600: -6; rRNA inh HTS RFP: 1.1

How did CCn1ncc([N+](=O)[O-])c1C(=O)Nc1ccc(C(=O)N2CCCCC2)cc1 do in these assays?
T cruzi inh: 2; ALR inh: -4; RanGTP-Impb inh: -1.7; Beta apoptosis: -10; Calb FLC: -9

What do the screens show for `CN(C)c1ccc(S(=O)(=O)NCC(=O)OCC(=O)c2ccc[nH]2)cc1[N+](=O)[O-]`?
rRNA inh HTS: -3; FGF22 binding: inactive; ALR inh: -1; MLL AF4-AF9 inh: -3.7; Beta apoptosis: -4; rRNA inh HTS OD600: -7; rRNA inh HTS RFP: 1.6

How did COc1ccccc1NC(=O)CCc1nnc2ccc(NCc3ccco3)nn12 do in these assays?
T cruzi inh: 11; rRNA inh HTS: -3; FGF22 binding: inactive; ALR inh: 0; MLL AF4-AF9 inh: -2.7; RanGTP-Impb inh: 1.1; Calb FLC: -4; rRNA inh HTS OD600: -11; rRNA inh HTS RFP: -1.0

How did CN1C(=O)c2cccc3c(S(N)(=O)=O)ccc1c23 do in these assays?
T cruzi inh: -28; rRNA inh HTS: 0; FGF22 binding: inactive; ALR inh: -12; MLL AF4-AF9 inh: -2.9; RanGTP-Impb inh: inconclusive; Calb FLC: -5; rRNA inh HTS OD600: 5; rRNA inh HTS RFP: -3.3

What do the screens show for `Cn1cc([N+](=O)[O-])c(C(=O)N/N=C\c2c[nH]c3ccccc23)n1`?
T cruzi inh: -7; rRNA inh HTS: 15; FGF22 binding: inactive; ALR inh: 0; MLL AF4-AF9 inh: 0.3; RanGTP-Impb inh: 1.8; Beta apoptosis: -5; Calb FLC: inconclusive; rRNA inh HTS OD600: 12; rRNA inh HTS RFP: -1.9

How did Cc1nc(CS(=O)(=O)c2ccc(Cl)cc2)cc(Sc2ccccc2Cl)n1 do in these assays?
T cruzi inh: 15; ALR inh: -59; RanGTP-Impb inh: 4.0; Calb FLC: -5

Results for COc1cnn(-c2ccccc2)c(=O)c1OC ?
T cruzi inh: -15; rRNA inh HTS: 2; FGF22 binding: inactive; ALR inh: -3; MLL AF4-AF9 inh: -8.5; RanGTP-Impb inh: 0.0; Beta apoptosis: -11; Calb FLC: -3; rRNA inh HTS OD600: 4; rRNA inh HTS RFP: -0.6

Results for Cc1cc(S(=O)(=O)N2CCCOC2CNC(=O)C(=O)NCc2cccs2)ccc1F (stereo not given) ?
T cruzi inh: -13; rRNA inh HTS: 6; FGF22 binding: inactive; ALR inh: -11; MLL AF4-AF9 inh: 1.5; RanGTP-Impb inh: -3.1; Beta apoptosis: -1; Calb FLC: -1; rRNA inh HTS OD600: 8; rRNA inh HTS RFP: -0.8

How did COc1ccc(CN(C)CC(=O)NCC(=O)Nc2c(C)cccc2C)cc1 do in these assays?
rRNA inh HTS: 7; FGF22 binding: inactive; ALR inh: -3; MLL AF4-AF9 inh: 4.7; Beta apoptosis: 2; rRNA inh HTS OD600: 3; rRNA inh HTS RFP: 0.5

Results for Fc1ccc(CO/N=C2\CCCc3nonc32)cc1 ?
T cruzi inh: 1; rRNA inh HTS: 6; FGF22 binding: inactive; ALR inh: -5; MLL AF4-AF9 inh: 2.9; RanGTP-Impb inh: -4.7; Beta apoptosis: -5; Calb FLC: -1; rRNA inh HTS OD600: -11; rRNA inh HTS RFP: 4.1

Results for CC(C)n1ncc2c(C(=O)Nc3cccc(S(=O)(=O)N(C)C)c3)cc(C3CC3)nc21 ?
FGF22 binding: inactive; ALR inh: 2; MLL AF4-AF9 inh: 1.4; Beta apoptosis: 3

What do the screens show for `Cc1cc(C)n(-c2ccc(S(=O)(=O)N3CCCC3)cc2[N+](=O)[O-])n1`?
T cruzi inh: -8; rRNA inh HTS: 6; FGF22 binding: inactive; ALR inh: -7; MLL AF4-AF9 inh: 0.1; RanGTP-Impb inh: -4.2; Beta apoptosis: -7; Calb FLC: -2; rRNA inh HTS OD600: 6; rRNA inh HTS RFP: -2.8

What do the screens show for `CCn1c(SCC(=O)N2CCN(S(=O)(=O)c3ccccc3)CC2)nnc1-c1cccs1`?
T cruzi inh: -2; ALR inh: -2; RanGTP-Impb inh: 1.4; Beta apoptosis: -2; Calb FLC: 1

How did Cn1c(=O)cc(OCCCC(=O)NCc2ccc(F)cc2Cl)c2ccccc21 do in these assays?
T cruzi inh: 0; rRNA inh HTS: 8; ALR inh: 3; MLL AF4-AF9 inh: -1.9; RanGTP-Impb inh: 1.4; Beta apoptosis: -2; Calb FLC: -12; rRNA inh HTS OD600: 4; rRNA inh HTS RFP: -1.0

How did O=C(Nc1ccccc1SCC1CSc2nc3ccccc3c(=O)n21)c1cccc(Cl)c1 (stereo not given) do in these assays?
T cruzi inh: 26; ALR inh: -22; RanGTP-Impb inh: 0.8; Beta apoptosis: 6; Calb FLC: -4

Results for NC/C(=N\O)c1ccc(Cl)cc1Cl ?
T cruzi inh: 2; rRNA inh HTS: -2; FGF22 binding: inactive; ALR inh: -4; MLL AF4-AF9 inh: -47; RanGTP-Impb inh: 8.3; Beta apoptosis: -3; Calb FLC: -4; rRNA inh HTS OD600: -2; rRNA inh HTS RFP: -0.1

What do the screens show for `CC(OC(=O)Cn1cnc2ccccc2c1=O)C(=O)N(C)c1ccccc1` (stereo not given)?
T cruzi inh: 6; rRNA inh HTS: -2; FGF22 binding: inactive; ALR inh: 1; MLL AF4-AF9 inh: -0.5; RanGTP-Impb inh: -3.5; Beta apoptosis: -1; Calb FLC: -6; rRNA inh HTS OD600: 3; rRNA inh HTS RFP: -0.8

What do the screens show for `COc1ccc(OC)c(NC(=O)CC2SC(=N)N(c3ccccc3)C2=O)c1` (stereo not given)?
T cruzi inh: -2; rRNA inh HTS: -8; FGF22 binding: inactive; ALR inh: -28; MLL AF4-AF9 inh: -2.2; RanGTP-Impb inh: -2.0; Beta apoptosis: 3; Calb FLC: inconclusive; rRNA inh HTS OD600: 0; rRNA inh HTS RFP: 1.4

What do the screens show for `O=C(OC1CCOC1=O)c1ccc(Cl)c(S(=O)(=O)N2CCCCC2)c1` (stereo not given)?
T cruzi inh: -7; rRNA inh HTS: 4; FGF22 binding: inactive; MLL AF4-AF9 inh: -1.5; RanGTP-Impb inh: -1.3; Beta apoptosis: 2; Calb FLC: 7; rRNA inh HTS OD600: 2; rRNA inh HTS RFP: -1.4
